# TRPML1 ag = activates the human TRPML1 channel; 410,000 tested, 0.12% active; TRPML1-expressing cells, Ca2+ dye fluorescence, FDSS; host cell line not named in the record; reference of the full effect not given here; activation, % (no concentration beside the values); Q9GZU1; in the data active = activation above about 50%; inconclusive = about 30% to 50%; inactive = below about 30%; also: 0% is about no effect; the text of the record puts the active cut at 80%
# Target sequence (Q9GZU1 whole entry, looked up): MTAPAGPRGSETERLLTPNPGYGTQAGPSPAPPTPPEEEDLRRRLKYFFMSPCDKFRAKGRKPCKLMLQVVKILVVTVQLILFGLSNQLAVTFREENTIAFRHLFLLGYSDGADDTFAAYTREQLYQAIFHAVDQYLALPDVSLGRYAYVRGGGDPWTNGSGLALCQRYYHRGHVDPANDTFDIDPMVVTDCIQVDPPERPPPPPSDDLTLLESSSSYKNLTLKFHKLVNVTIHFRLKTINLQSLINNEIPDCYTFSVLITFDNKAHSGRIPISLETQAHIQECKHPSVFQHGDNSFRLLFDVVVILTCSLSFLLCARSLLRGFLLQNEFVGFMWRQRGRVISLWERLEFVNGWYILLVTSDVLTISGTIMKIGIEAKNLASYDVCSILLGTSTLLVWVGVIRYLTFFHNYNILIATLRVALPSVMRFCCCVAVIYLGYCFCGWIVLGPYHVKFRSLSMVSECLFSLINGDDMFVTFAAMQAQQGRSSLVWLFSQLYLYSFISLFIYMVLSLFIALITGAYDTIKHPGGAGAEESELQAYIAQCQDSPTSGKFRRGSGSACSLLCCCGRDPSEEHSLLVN
#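 Cells: TRPML1-DL, 1X Tet inducer, ~16 h at 37 degrees C/5% CO2. Dye: ABD Ca8 no-wash + quencher, 45-90 min RT. Read: 10 s baseline, compound add, 110 s agonist phase; 54-4 EC80 (4uM final), 110 s antagonist phase.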
# PINK1 modulator = modulators of PINK1 expression. PINK1 immunofluorescence, high-content cytometry, 24 h. Potency, µM (series often up to 76.6 µM), for the others: at the top dose activation (PINK1 increase), most hits filed as activators. 410,000 tested, 0.2% active; active = well fitted activation curve with a large enough effect; inconclusive = small, poorly fitted or top-dose-only effect; inactive = flat fitted curve, though single readings scatter; cell line not stated here;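 also: potency is read from the fitted curve at half-maximal effect; % of control where 0% means no effect; nearly all actives have a fitted effect of over 65% in size; a mitochondrial uncoupler was the plate control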
#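 Stable cell line treated 24 h with compounds at 5 concentrations (CCCP controls), then fixed and immunostained for PINK1 plus nuclear and cell stains; PINK1 immunofluorescence quantified by laser-scanning microplate cytometry.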
# CtBP-E1A blk = inhibitors of CtBP/E1A interaction; AlphaScreen GST-E1A/His-CtBP binding, 1536-well; active compounds read low; control for the full effect not named in the record; activity change, % (no concentration beside the values); 340,000 tested, 0.49% active; in the data active means activity change below about -65%; inconclusive means about -30% to -65%; inactive means above about -30%; also: % is scaled to controls: 0 for no effect and ±100 for the full control effect
#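 Steps: dispense buffer (Tris pH 8.0, NaCl 300 mM, TCEP 1 mM, BSA, Tween 20); add 5X protein mix (GST-E1A, His-CtBP, 125 nM each); pin 23 nL compound; 2 h at 37 °C, dark; add 5X beads (50 ug/mL); 1 h; read.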
# D2 agonist = human D2 receptor agonism in beta-arrestin assay. P14416. DiscoveRx PathHunter D2 beta-arrestin, luminescence, 90 min; 100% = 57 uM dopamine signal. 360,000 tested, 0.084% active. activation, % (test concentration not listed); in the data active = activation above about 40%; inconclusive = about 15% to 40%; inactive = below about 15%; also: compound concentration not given in the record; the text of the record calls up to 30% inactive
# Target sequence (P14416 whole entry, looked up): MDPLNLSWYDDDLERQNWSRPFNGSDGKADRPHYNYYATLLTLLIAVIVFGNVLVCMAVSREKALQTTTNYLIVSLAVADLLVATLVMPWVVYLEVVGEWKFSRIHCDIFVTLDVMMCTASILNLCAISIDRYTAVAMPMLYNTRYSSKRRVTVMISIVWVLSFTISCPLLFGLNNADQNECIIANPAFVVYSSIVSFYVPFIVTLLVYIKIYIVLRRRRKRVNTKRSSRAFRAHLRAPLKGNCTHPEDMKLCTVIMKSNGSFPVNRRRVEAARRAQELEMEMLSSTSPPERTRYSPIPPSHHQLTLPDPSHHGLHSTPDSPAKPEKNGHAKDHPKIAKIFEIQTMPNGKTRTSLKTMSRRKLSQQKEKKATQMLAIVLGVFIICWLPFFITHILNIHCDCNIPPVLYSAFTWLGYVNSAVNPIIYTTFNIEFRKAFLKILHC
#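 Agonist mode: compounds alone added to overnight-plated D2 PathHunter cells for 90 min at 37 C, with 57 uM final dopamine (EC100) defining full response. Beta-arrestin recruitment detected by chemiluminescent reagent, read after 1 h at ambient temperature.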
# Six1-Eya2 blk = Six1/Eya2 interaction inhibition | Q15475+O00167 | AlphaScreen GST-Six1/His-Eya2 binding, biochemical; active compounds read low; control for the full effect not named in the record | 360,000 tested, 0.56% active | activity change, % (test concentration not listed); in the data active = activity change below about -65%; inconclusive = about -30% to -65%; inactive = above about -30%; also: % is scaled to controls: 0 for no effect and ±100 for the full control effect
#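 AlphaScreen luminescence read after one hour at 37 °C in darkness. Pin-transferred compounds met GST-Six1 and His-Eya2 protein (5X stock 250 nM/500 nM) plus glutathione donor and Ni-chelate acceptor beads (5X, 50 ug/mL).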
# TRPML1 inh = inhibitors of human TRPML1 channel; activity change, negative = inhibition, % (test concentration not listed); TRPML1-inducible cells, Ca2+ dye fluorescence, FDSS; active compounds read low; inhibition of EC80 agonist-evoked calcium signal; 390,000 tested, 0.02% active; in the data active means activity change below about -50%; inconclusive means about -30% to -50%; inactive means above about -30%;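 also: stimulus is agonist 54-4 at its EC80 concentration; % is scaled to controls: 0 for no effect and ±100 for the full control effect; compound concentration not given in the record; the text of the record puts the active cut at -80%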
#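 Calcium fluorescence in TRPML1-DL cells induced overnight with Tet: a 110 s read after compound pin addition, then a 110 s antagonist read after challenge with 54-4 at 4 uM final (EC80).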
# Starred values were filed as active, the others as inactive; ? = inconclusive; nt = not tested or not shown; [ ] = dose if it differs, or a comment. The list is partial. The share of hits here may be higher or lower than overall.
cpd	Molecule	TRPML1 ag	PINK1 modulator	CtBP-E1A blk	D2 agonist	Six1-Eya2 blk	TRPML1 inh
1	C=CCOc1ccc(CC2C(=O)N(C)C(=O)N(C)C2=O)cc1	0.1	1.2%	-2	-1.5	-12	18
2	CC1=C(C)CC2(C(=O)NC(=S)NC2=O)C(C)C1 (stereo not drawn)	-0.5	-3.0%	0	-0.5	8	?
3	CCOc1cccc(CNCCc2c(C)[nH]c3ccc(OC(F)(F)F)cc23)c1O	2.4	-1.7%	nt	1.0	-21	-5
4	CC(C)CN1CCN(Cc2ccccc2C(F)(F)F)CC1CCO (stereo not drawn)	-0.3	0.2%	1	-1.6	2	6
5	COC(=O)C1=C(c2ccc(F)cc2F)C[C@@H]2CC[C@H]1N2C(=O)N1CCOCC1	0.2	0.7%	5	0.6	8	3
6	CCOC(=O)c1ccc2[nH]c(-c3ccc(S(=O)(=O)F)cc3)cc(=O)c2c1	-0.7	0.8%	nt	3.9	-17	1
7	COc1ccccc1N(CC(=O)NC1CCCCC1)C(=O)c1cnn(C(C)C)c1	-1.0	22%[38.3 µM]	0	-2.9	5	2
8	O=c1[nH]c(=O)n(-c2ccc(F)cc2)c(O)c1/C=C1\C=Nc2ccccc21	1.8	0.6%	-17	1.0	-3	-14
9	Cc1ccc(NC(=O)CCNC(=O)N2C[C@H]3C[C@@H](C2)c2cccc(=O)n2C3)c(C)c1	nt	1.0%	5	-4.4	3	nt
10	CC(C)OC12Oc3ccccc3C=C1N1CCC2CC1 (stereo not drawn)	-1.1	1.5%	1	-0.1	8	3
11	CN1C(=O)/C(=C/c2ccc(Cl)s2)C(=O)NC1=S	-0.3	-0.5%	-6	-2.4	-23	6
12	CNC(C(=O)c1ccccc1)C(OC)c1ccccc1 (stereo not drawn)	1.4	-2.8%	-2	-0.5	4	-7
13	CC(=O)NC(C)Cc1ccccc1 (stereo not drawn)	-0.7	0.7%	5	-3.7	1	-3
14	COC(=O)C1=C(c2ccc(OCc3ccccc3)cc2)C[C@@H]2CC[C@H]1N2C(=O)NCc1ccc(Cl)cc1	nt	0.5%	0	1.0	0	nt
15	CCCCn1c(O)c(C(CC)=NCCc2ccccc2)c(=O)[nH]c1=O	0.0	3.6%	2	-1.4	-3	5
16	COC(=O)C(O)(c1ccc(NC(=S)NC(=O)c2ccccc2)cc1)C(F)(F)F (stereo not drawn)	4.1	?	-14	-1.4	0	29
17	CC1(C)CC(=O)C(C=NCCN2CCN(C(=O)Cc3ccc(Cl)cc3)CC2)=C(O)C1	-0.4	3.4%[38.3 µM]	9	-0.4	0	-12
18	O=c1c2ccccc2nc(/C=C/c2ccccn2)n1-c1ccccc1	0.2	5.3%	0	0.6	-1	-3
19	COC(=O)[C@@H]1N=C(c2ccc(OC)cc2)O[C@]12C(=O)N(Cc1ccc(OC)cc1)c1ccccc12	1.2	0.1%	-21	nt	-11	nt
20	CC(NCC#Cc1ccccc1)C(O)c1ccccc1 (stereo not drawn)	-0.8	1.0%	0	-6.8	3	-10

# In another format: 2 of the compounds above.
4) CC(C)CN1CCN(Cc2ccccc2C(F)(F)F)CC1CCO (stereo not drawn)
2) CC1=C(C)CC2(C(=O)NC(=S)NC2=O)C(C)C1 (stereo not drawn)

compound no.	4	2
TRPML1 ag	-0.3	-0.5
PINK1 modulator	0.2%	-3.0%
CtBP-E1A blk	1	0
D2 agonist	-1.6	-0.5
Six1-Eya2 blk	2	8
TRPML1 inh	6	?

# (continued)
cpd	Molecule	TRPML1 ag	PINK1 modulator	CtBP-E1A blk	D2 agonist	Six1-Eya2 blk	TRPML1 inh
21	COc1ccc(-n2c(/C=C/c3ccc(O)cc3)nc3ccccc3c2=O)cc1	2.6	0.1%	-10	12	-5	12
22	CCCCn1c(O)c(/C=N/NC(=O)c2ccncc2)c(=O)[nH]c1=O	0.9	2.2%	?	-1.1	-27	17
23	Cc1cccc(NP(=O)(Oc2ccccc2F)Oc2ccccc2F)c1C	0.6	?	10	-6.7	5	8
24	CCCCCCC(=O)N/N=C/c1c(O)n(CCc2ccccc2)c(=O)[nH]c1=O	0.7	-0.6%	?	-3.1	?	1
25	CCC(C)n1c(O)c(C=NCC2CCCO2)c(=O)[nH]c1=S (stereo not drawn)	1.0	0.8%	5	-1.5	5	-5
26	Cc1cccc(Cn2cccc(C(=O)Nc3nnc(C)s3)c2=O)c1	-0.5	1.9%	nt	nt	nt	-3
27	CC(C)OP(=O)(Oc1ccc(C(O)C(Cl)(Cl)Cl)cc1)OC(C)C (stereo not drawn)	-0.2	5.8%	9	-5.8	1	1
28	CSc1nnc([C@@H](N)Cc2c[nH]c3ccccc23)o1	1.1	1.2%	-14	-2.0	-9	-8
29	COC(=O)C1=C(c2ccccc2)C[C@@H]2CC[C@H]1N2C(=O)NC1CCCCC1	-0.3	-0.5%	-3	-5.6	2	4
30	CCCCNc1ccncc1S(=O)(=O)NC(=O)NC(C)C	0.6	1.9%	0	2.2	1	1
31	CC(C)CCNC(=O)c1c(N)n(Cc2ccc3c(c2)OCO3)c2nc3ccccc3nc12	0.6	9.2%[38.3 µM]	9	-3.5	13	6
32	CSC1=NP(=S)(SC)N(C)c2nc3n(c21)CCC3 (stereo not drawn)	-1.0	-0.3%	-2	-3.9	-9	-9
33	CCCCCn1c(=O)c(C(=O)NCc2ccccc2Cl)c(O)c2ccccc21	0.2	0.1%	-4	-2.6	8	1
34	COC(=O)C1=C(c2c(C)noc2C)C[C@@H]2CC[C@H]1N2C(=O)NCc1ccc(F)cc1	0.6	-1.5%	3	-0.9	-5	-6
35	COc1cc([N+](=O)[O-])c2nc(C)ccc2c1[N+](=O)[O-]	0.9	5.2%	0	?	-15	11
36	CC1(C)C2SCC(=O)N2CCN1CC(=O)NN (stereo not drawn)	0.6	1.9%	-17	-1.8	12	21
37	c1ccc2c(CNC3CCCCCC3)c[nH]c2c1	0.2	14%[38.3 µM]	41	-1.4	-15	-5
38	O=C1C2CCCC1C(N1CCCCC1)CC2 (stereo not drawn)	0.7	-0.1%	-5	6.9	1	6
39	CC1CCSP(=O)(Oc2ccccc2)O1 (stereo not drawn)	-0.4	-0.1%	1	-4.0	-26	-2
40	Cc1ccccc1O	0.7	-0.4%	-1	-1.3	15	0

# Some entries already given, showing only CtBP-E1A blk, Six1-Eya2 blk and TRPML1 inh.
no. | smiles | CtBP-E1A blk | Six1-Eya2 blk | TRPML1 inh
12 | CNC(C(=O)c1ccccc1)C(OC)c1ccccc1 (stereo not drawn) | -2 | 4 | -7
13 | CC(=O)NC(C)Cc1ccccc1 (stereo not drawn) | 5 | 1 | -3

# (more compounds)
cpd	Molecule	TRPML1 ag	PINK1 modulator	CtBP-E1A blk	D2 agonist	Six1-Eya2 blk	TRPML1 inh
41	Cc1cccc(-n2c(CN3C(=O)c4ccccc4C3=O)nc3ccccc3c2=O)n1	0.1	-0.6%	15	-2.6	-18	-5
42	O=C(O)c1nonc1-c1nonc1C(=O)O	0.5	4.3%[38.3 µM]	2	-1.3	6	0
43	CCOC(=O)C1CN(C)CCC1=O (stereo not drawn)	0.2	1.7%	-1	-2.7	1	-2
44	O=P(Nc1cccnc1)(Oc1ccccc1)Oc1ccccc1	0.3	2.0%	-11	0.2	6	2
45	N#CC12CC(=O)N1Cc1cnnn1-c1ccccc12 (stereo not drawn)	0.1	-0.7%	4	-5.9	12	nt
46	O=P(NS(=O)(=O)c1ccccc1)(Oc1ccccc1)Oc1ccccc1	0.6	nt	6	2.9	7	-10
47	Cc1ccccc1-n1c(O)c(C=NCCN2CCOCC2)c(=O)[nH]c1=O	-0.2	1.6%	3	1.9	14	-1
48	CCCCOc1nc2ccccc2c(=O)n1-c1ccccc1	0.6	3.0%	5	-2.5	3	-4
49	CN1CCN(C(=O)COc2ccc3ccccc3c2Br)CC1	0.6	7.1%[38.3 µM]	4	-2.4	-2	4
50	NS(=O)(=O)c1ccc(N=Cc2c(O)n(-c3ccccc3)c(=O)[nH]c2=O)cc1	0.8	0.8%	4	-5.5	8	19
51	CC(=O)N1CCN(c2ccc([N+](=O)[O-])cc2C=C2C(=O)NC(=O)NC2=O)CC1	-0.1	4.4%	2	-4.3	5	12
52	CCC(C)n1c(O)c(C=NCCN2CCOCC2)c(=O)[nH]c1=S (stereo not drawn)	-0.4	0.6%	3	-2.2	9	3
53	CC(=O)N1CN2CN(C1)CN(C(C)=O)C2	-0.1	2.1%	4	-1.3	6	4
54	COc1ccc(-c2ccc3c(c2)CN(c2cccc(Cl)c2)Cc2cnnn2-3)cc1	0.3	3.3%	-6	-1.8	-9	nt
55	C/C(=C/C=C/[C@@H](C)C(=O)O)[C@H]1CN[C@H](C(=O)O)[C@H]1CC(=O)O	0.0	0.8%	2	-2.0	-1	0
56	COc1ccc(C(CNC(=O)CCc2ccsc2)N(C)C)cc1 (stereo not drawn)	2.8	2.1%	-1	-3.7	-4	12
57	COc1cccc(CNCCc2ccccc2)c1OC	1.2	-0.5%	16	-2.5	3	4
58	CC(C)(C)NC(=S)N1Cc2ccccc2-n2nncc2C1	0.3	1.4%	-4	-4.8	8	-15
59	CC(=O)Nc1ccc(C(=O)OCC(=O)Nc2ccc(Cl)cc2C(=O)c2ccccc2)cc1	-0.2	9.7%	13	-3.9	-5	-8
60	Cc1ccc(N2CCN(CCc3ccccc3)CC2)cc1	0.6	1.2%[38.3 µM]	-26	2.6	-25	-13
61	Cc1cccc(NP(C)(=O)c2nc3c(s2)CCCC3)c1 (stereo not drawn)	-0.7	0.8%	6	1.3	-2	-4
62	O=C(c1ccc2c3c(cccc13)CC2)C1CCCN(CC2CC2)C1 (stereo not drawn)	-0.1	0.2%	-3	-1.5	-13	-3
63	COc1cc(CC(=O)N2C[C@H]3C[C@@H](C2)c2cccc(=O)n2C3)cc(OC)c1OC	-0.5	-0.1%	0	-2.3	-5	0
64	C[N+]12CCC(CC1)C(=C(c1ccccc1)c1ccccc1)C2	1.8	9.2%	-2	-1.2	5	-15
65	COC(=O)C1=C(c2ccc(F)cc2F)C[C@@H]2CC[C@H]1N2C(=O)N1CCC(O)(c2ccc(Cl)cc2)CC1	1.5	?	nt	-4.4	-2	16
66	CN(C)CC#CCOCCOCCC#N	4.4	-0.1%	3	-1.7	5	10
67	CCOC(=O)c1ccccc1N	-0.2	1.8%	4	0.1	1	12
68	Cc1ccc(-c2nn3c(=O)cc(CN4CCN(C(=O)COc5ccc(C)c(C)c5)CC4)nc3s2)cc1	0.2	1.0%	nt	nt	nt	35
69	CC[n+]1c(/C=C/N(C)c2ccccc2)sc2ccc(Cl)cc21	0.4	nt	8	-2.2	0	5
70	O=P(Oc1ccc(-c2ccccc2)cc1)(N1CC1)N1CC1	-0.2	-0.3%	-1	-2.1	-4	6
71	Fc1ccc(C2N3CCCN23)cc1 (stereo not drawn)	0.0	-1.5%	0	-3.7	4	7
72	COC(=O)C1=C(c2cccc(C#N)c2)C[C@@H]2CC[C@H]1N2C(=O)NC(C)C	-0.2	0.4%	2	-2.7	0	-9
73	CC1C(c2ccccc2)OC(=O)N1C (stereo not drawn)	0.2	0.8%	-2	-5.4	2	-15
74	O=C(c1ccccc1)N1CCC2(CC1)OCCO2	0.5	3.1%	-18	2.8	4	-6
75	Cn1cc[n+](C)c1P(=S)(c1ccccc1)c1ccccc1	2.2	1.0%	nt	-7.2	3	24
